FGF22 binding: binders of human FGF22 protein, primary screen, FGF22 synaptogenesis inhibitor project, biophysical, thermal shift, single point; recombinant FGF22 thermal shift, SYPRO orange fluorescence; percent of sucrose octasulfate shift, DMSO zero; calls only at 9.99 µM; hit rate 1.5% among 340,000;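 active = melting point raised past a set limit in the mean and every replicate; three in four hits are not shown here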
Target sequence (Q9HCT0 whole entry, looked up): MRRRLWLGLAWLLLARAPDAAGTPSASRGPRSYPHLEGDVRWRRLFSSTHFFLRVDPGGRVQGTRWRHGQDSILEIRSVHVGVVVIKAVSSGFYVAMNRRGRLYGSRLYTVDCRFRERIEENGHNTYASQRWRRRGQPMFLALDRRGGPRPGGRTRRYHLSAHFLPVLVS
HNF4A DNA FP: change in binding of human HNF4A to DNA, primary screen, biochemical, fluorescence polarization, FITC-DNA. Hepatocyte nuclear factor 4-alpha (Homo sapiens), P41235. 1 h. activity change, % at 10 µM. hit rate 0.3% among 360,000. AID 1224865, 2016; in the data active = activity change above about 30%, passing the limit was not always enough;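 note: controls were the assay level and a saturating level of protein; the project sought stronger binding though the title names inhibitors; some compounds called inactive have numbers as strong as hits; positive values seem to mean higher polarization but the record does not say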
Target sequence (P41235 whole entry, looked up): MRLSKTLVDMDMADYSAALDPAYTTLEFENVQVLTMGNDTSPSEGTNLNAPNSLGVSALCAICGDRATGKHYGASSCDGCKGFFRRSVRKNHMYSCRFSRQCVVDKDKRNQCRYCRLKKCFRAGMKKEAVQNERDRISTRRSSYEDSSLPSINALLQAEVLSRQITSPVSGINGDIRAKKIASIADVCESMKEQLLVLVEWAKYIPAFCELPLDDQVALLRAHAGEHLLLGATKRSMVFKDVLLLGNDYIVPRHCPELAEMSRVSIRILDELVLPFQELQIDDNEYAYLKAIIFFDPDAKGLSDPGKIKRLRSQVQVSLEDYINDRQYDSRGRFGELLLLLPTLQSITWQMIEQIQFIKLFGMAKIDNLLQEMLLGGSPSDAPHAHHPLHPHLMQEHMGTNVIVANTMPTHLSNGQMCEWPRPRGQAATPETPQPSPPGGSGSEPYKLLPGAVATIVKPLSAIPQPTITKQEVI
Ecoli rRNA inh: reduced GFP signal of wild-type E. coli, primary screen, bacterial rRNA inhibitor project, GFP/RFP fluorescence, OD600, single point; GFP signal change (wild-type ribosome), % (concentration not given with the values); hit rate 1.6% among 350,000; E. coli WT GFP vs humanized-ribosome RFP mutants, 24 h; stronger effect = lower value; DMSO median 0, no signal -100;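 active = significant combined selectivity score with lowered wild-type GFP, culture density cut under 30%, mutant RFP and density less affected; inactive = any of these conditions unmet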; note: one replicate is shown; some compounds called inactive have numbers as strong as hits
E coli growth: E. coli growth inhibition, primary screen, OD600 | hit rate 0.21% among 330,000 | AID 1053175, 2014 | OD600 absorbance (no concentration beside the values) | Escherichia coli growth, 23 h; stronger effect = lower value;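 active = OD600 absorbance below the run mean of sample wells minus 3.6 SD, in any replicate, cut at about 0.56 in these data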;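 note: stock transfer was 300 nL into about 60 µL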
UCH37 inh: inhibitors of human UCH37 deubiquitinase, primary screen, biochemical, Ub-AMC cleavage, fluorescence | purified proteasome/UCH37 | inhibition, % (concentration not given with the values) | hit rate 0.33% among 330,000 | AID 588478, 2011;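 active = mean of two replicates above 20%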;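 note: 0% = compound-free wells with enzyme and 100% = wells lacking proteasome; stock transfer was 100 nL into about 20 µL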
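Assay system: Proteasome-bound UCH37. Buffer or medium: pH 7.4 Tris-HCl (50 mM) with ovalbumin, ATP-MgCl2, DTT. Incubation: 30 min preincubation with enzyme, 25 min cleavage at room temperature. Measured by: fluorescence, ex 355 nm, em 460 nm. Read-out basis: percent inhibition. Control set: wells without proteasome as full block, compound-free enzyme plus substrate as uninhibited.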
ALR inh: inhibitors of human ALR sulfhydryl oxidase, primary screen, biochemical, H2O2 detection, HRP-luminol luminescence, single point; inhibition, % (concentration not given with the values); hit rate 3.8% among 290,000; AID 485317, 2010; purified ALR, DTT oxidation; FAD-linked sulfhydryl oxidase ALR (Homo sapiens), P55789;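 active = mean and each replicate at 75% or more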;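 note: stock transfer was 7.5 nL into about 7.5 µL; 0% = neutral wells and 100% = wells with inactivated enzyme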
Beta2AR agonist: beta2AR agonists driving receptor internalization, primary screen, cell-based, FAP fluorogen, flow cytometry; AID 504454, 2011; Am2.2-beta2AR cells; reference of the scale not given here; response, % (no concentration beside the values); Beta-2 adrenergic receptor (Homo sapiens), P07550; hit rate 0.43% among 340,000;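 active = response above a set limit, near 3 SD of response in nonfluorescent compounds, cut at about 42% in these data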;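 note: stock transfer was 100 nL into about 11 µL; a reference agonist was the positive control; negative values mostly stem from fluorescent compounds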
Target sequence (P07550 whole entry, looked up): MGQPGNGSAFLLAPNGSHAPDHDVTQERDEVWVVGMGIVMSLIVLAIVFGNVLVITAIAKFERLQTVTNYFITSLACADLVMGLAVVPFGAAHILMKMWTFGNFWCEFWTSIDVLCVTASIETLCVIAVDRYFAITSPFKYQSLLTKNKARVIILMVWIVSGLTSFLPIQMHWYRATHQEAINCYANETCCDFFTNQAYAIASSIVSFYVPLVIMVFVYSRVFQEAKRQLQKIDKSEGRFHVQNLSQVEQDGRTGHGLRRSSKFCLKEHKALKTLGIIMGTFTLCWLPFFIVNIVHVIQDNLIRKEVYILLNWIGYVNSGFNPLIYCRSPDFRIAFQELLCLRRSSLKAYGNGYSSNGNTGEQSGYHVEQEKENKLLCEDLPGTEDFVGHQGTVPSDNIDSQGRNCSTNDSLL
Ecoli rRNA inh OD600: second read-out of Ecoli rRNA inh, no call of its own (marks repeat the call); OD600 change, %; measured here: OD600 growth;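 optical density of the mix in the first replicate; 0 = DMSO median and -100 = no signal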
Ecoli rRNA inh RFP: recorded beside Ecoli rRNA inh, whose call it bears; RFP signal change, %; measured here: RFP humanized mutant strains;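 first replicate; 0 = DMSO median and -100 = no signal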
* marks the source's active call; other numbers are inactive results; i = inactive; · = not tested or not shown; + = active, no number. These rows are one share of the data (hit frequency here may not be typical).

SMILES | FGF22 binding | HNF4A DNA FP | Ecoli rRNA inh | Ecoli rRNA inh OD600 | Ecoli rRNA inh RFP | E coli growth | UCH37 inh | ALR inh | Beta2AR agonist
C/C(=N\NC(=O)c1ccc(Br)cc1)c1cccc(NC(=O)c2cccnc2)c1 | i | -0.7 | -1 | 1 | -0.9 | · | · | 4 | -10
O=C(COC(=O)C1COc2ccccc2O1)NC(=O)NC1CCCC1 (stereo not drawn) | · | -1.6 | 5 | 7 | 1.1 | 0.74 | -0.6 | -4 | 2
COc1ccc(N2CCN(C(=O)c3cn(Cc4ccccc4)nc3-c3cccnc3)CC2)cc1 | i | 5.3 | · | · | · | 0.66 | 2.0 | 69 | -1
CS(=O)(=O)N(CC(=O)N1CCN(Cc2ccccc2)CC1)c1cccc(F)c1 | i | 1.8 | 4 | 4 | 0.0 | 0.72 | -0.2 | -4 | -8
CC(=O)Nc1ccc(C(=O)N2CCCc3ccccc32)cc1 | i | 5.6 | 2 | 1 | 1.5 | 0.62 | 1.6 | -7 | -18
O=C(CCCn1c(=O)[nH]c2cc(Cl)ccc2c1=O)NCC1CCCO1 (stereo not drawn) | · | 0.1 | · | · | · | 0.77 | 2.1 | · | -3
COc1cc(NC(=O)c2ccc(Br)o2)ccc1NC(=O)C(C)C | · | 0.3 | · | · | · | 0.73 | -0.4 | -5 | -11
CC(C)C[C@H](NC(=O)N1CCn2c1nc1ccccc12)C(=O)N[C@@H](C(=O)O)c1ccccc1 | i | -0.4 | 2 | 2 | 1.6 | 0.66 | -1.3 | -1 | 8
O=C(CC1NCCNC1=O)Nc1ccc(Cl)c(Cl)c1 (stereo not drawn) | · | -1.4 | · | · | · | 0.7 | 3.7 | · | -5
CC1Cn2c(nnc2-c2cccc(N)c2)S1 (stereo not drawn) | i | 2.6 | 0 | 5 | -1.9 | 0.72 | 0.3 | -14 | 13
COc1ccc(-c2ccc(N)[n+](CCCC(=O)O)n2)cc1 | i | 1.2 | 7 | 10 | 1.2 | 0.71 | -1.4 | 1 | 2
CO/C=C/C#CC1(O)CCN(C)CC1 | · | -4.2 | · | · | · | 0.7 | 0.4 | · | 0

Ordered by count of non-hydrogen atoms (ascending): three of the compounds above.
SMILES | FGF22 binding | HNF4A DNA FP | Ecoli rRNA inh | Ecoli rRNA inh OD600 | Ecoli rRNA inh RFP | E coli growth | UCH37 inh | ALR inh | Beta2AR agonist
O=C(CC1NCCNC1=O)Nc1ccc(Cl)c(Cl)c1 (stereo not drawn) | · | -1.4 | · | · | · | 0.7 | 3.7 | · | -5
C/C(=N\NC(=O)c1ccc(Br)cc1)c1cccc(NC(=O)c2cccnc2)c1 | i | -0.7 | -1 | 1 | -0.9 | · | · | 4 | -10
COc1ccc(N2CCN(C(=O)c3cn(Cc4ccccc4)nc3-c3cccnc3)CC2)cc1 | i | 5.3 | · | · | · | 0.66 | 2.0 | 69 | -1

(continued)
SMILES | FGF22 binding | HNF4A DNA FP | Ecoli rRNA inh | Ecoli rRNA inh OD600 | Ecoli rRNA inh RFP | E coli growth | UCH37 inh | ALR inh | Beta2AR agonist
CCOC(=O)c1ccccc1NC(=O)CN(c1cccc(OC)c1)S(C)(=O)=O | · | 0.3 | · | · | · | 0.69 | 1.9 | -3 | 0
COC(=O)c1c(NC(=O)c2ccco2)sc(C(=O)Nc2ccc(F)cc2)c1C | i | 3.6 | -1 | 3 | 2.9 | 0.73 | -240 | -14 | -13
COc1ccccc1NC(=O)Nc1nnc(Cc2ccc(F)cc2)s1 | i | -3.4 | 5 | 15 | -0.3 | 0.69 | -0.6 | -3 | -7
COc1ccc(CN2CCN(Cc3cn(C)nc3-c3ccccc3)CC2CCO)c(C)c1C (stereo not drawn) | · | -2.2 | -13 | -9 | -0.7 | 0.67 | 5.2 | -3 | -4
CC(C)NC(=O)c1cc2nc(-c3ccco3)cc(C(F)(F)F)n2n1 | i | -1.2 | -8 | 5 | -6.0 | 0.67 | -151 | 4 | -10
N=C(N)SCc1ccc(Cl)c2ccccc12 | i | 1.6 | · | · | · | · | · | · | 1
Cc1ccc(S(=O)(=O)N2C3CCCCC3O[C@H]2CC(=O)c2cccc3ccccc23)cc1 (stereo partly drawn) | i | 2.4 | 8 | 15 | 2.2 | · | · | · | ·
O=C(NC(Cc1cccc(F)c1)C(=O)O)C1CCCCC1 (stereo not drawn) | i | -3.0 | 14 | 10 | 0.7 | 0.68 | 3.5 | -13 | -2
COc1ccc(CN(C)C(=O)c2cccc(Oc3ccccc3)c2)c(OC)c1OC | i | -2.1 | -14 | -32 | -1.7 | 0.72 | 1.0 | 0 | -3
COc1cc(C=O)ccc1OS(=O)(=O)c1ccc(NC(C)=O)cc1 | + | 0.4 | 3 | 7 | 0.2 | 0.68 | -26 | -17 | 1
COc1ccc(-c2nnc(SCC(=O)NC(=O)Cc3ccccc3)n2C)cc1 | i | 0.1 | 3 | 13 | -0.3 | 0.68 | -3.6 | 4 | 0
CSCCC(NC(=O)COc1ccccc1)C(=O)N(C)Cc1ccc(SC)cc1 (stereo not drawn) | i | 3.2 | -13 | -45 | -0.8 | 0.71 | 2.4 | -10 | 4
CC(C)NC(=O)c1ccccc1NC(=O)C1CCCO1 (stereo not drawn) | · | 4.7 | · | · | · | 0.72 | 4.0 | 40 | -8
Cc1nn2cc(-c3ccccc3)nc2[nH]c1=O | · | -2.1 | · | · | · | 0.69 | -89 | -3 | -3
CCN1C(=O)[C@H]2[C@@H](c3ccc(-c4cccc(Cl)c4)c(OC)c3)N[C@@](C)(C(=O)OC)[C@H]2C1=O | i | 1.8 | 6 | 5 | 10 | · | 1.6 | -4 | 7
COc1cc(/C=C\C(=O)NCc2ccc3c(c2)cc(C)n3C)cc(OC)c1OC | i | 1.1 | -1 | 13 | 38 | · | 0.2 | 29 | 15
Nc1sc(-c2ccccc2)cc1C(=O)N1CCNCC1 | i | 0.3 | 7 | 16 | 2.3 | · | · | · | ·
O=C(COC(=O)c1ccccc1)Nc1ccc2[nH]c(=O)[nH]c2c1 | i | 0.0 | 17 | 16 | 3.0 | 0.7 | 0.7 | -2 | 4
O=C(NCC1CCCO1)c1cnn2c1NC(c1ccccc1)CC2C(F)(F)F (stereo not drawn) | · | 1.0 | 8 | 1 | 9.2 | 0.69 | 1.2 | -10 | 0
O=c1nc(Nc2ccc(OCc3ccccc3)cc2)sc2ncccc12 | i | 1.6 | 8 | 0 | -9.5 | 0.67 | 0.9 | 0 | 1
O=[N+]([O-])c1ccc2nc(CCCc3nc4ccc([N+](=O)[O-])cc4[nH]3)[nH]c2c1 | i | 0.0 | -11 | -7 | 3.4 | 0.72 | 2.7 | 0 | 54*
CC1(c2ccc(Cl)cc2)NC(=O)N(CC(=O)N2CCc3ccccc32)C1=O (stereo not drawn) | i | 0.7 | 15 | 13 | -1.0 | 0.72 | 0.5 | -4 | 4
Cc1[nH]c(=O)[nH]c(=O)c1NS(=O)(=O)c1ccc2c(c1)CCCC2 | i | -3.5 | 6 | 0 | 1.8 | 0.69 | 4.8 | 21 | 4
NS(=O)(=O)c1ccc(N=Nc2ccc(O)c3ncccc23)cc1 | i | 3.9 | 14 | 12 | 1.8 | 0.7 | 5.3 | -5 | 15

The closing 2 records of the part before lead into the next:
SMILES | FGF22 binding | HNF4A DNA FP | Ecoli rRNA inh | Ecoli rRNA inh OD600 | Ecoli rRNA inh RFP | E coli growth | UCH37 inh | ALR inh | Beta2AR agonist
Cc1[nH]c(=O)[nH]c(=O)c1NS(=O)(=O)c1ccc2c(c1)CCCC2 | i | -3.5 | 6 | 0 | 1.8 | 0.69 | 4.8 | 21 | 4
NS(=O)(=O)c1ccc(N=Nc2ccc(O)c3ncccc23)cc1 | i | 3.9 | 14 | 12 | 1.8 | 0.7 | 5.3 | -5 | 15
N#Cc1cn(Cc2ccco2)c(=O)[nH]c1=O | i | 0.5 | · | · | · | 0.67 | 4.5 | · | -6
COc1cc2c(cc1OC)C(c1ccccc1OC(C)C)CC(=O)N2 (stereo not drawn) | · | 4.8 | 9 | 6 | 5.5 | 0.71 | 1.0 | · | 1
COc1ccc(CC(=O)NCC2CCCN(Cc3cccc(C(F)(F)F)c3)C2)cc1 (stereo not drawn) | i | -0.4 | -2 | -11 | 5.4 | 0.66 | 4.2 | · | 4
COc1ccc2c(c1)c(CC(=O)OCC(=O)O)c(C)n2C(=O)c1ccc(Cl)cc1 | i | 5.1 | · | · | · | 0.7 | 3.2 | · | 2
O=C(Nc1ccc(Cl)cc1Cl)C1CCCO1 (stereo not drawn) | · | 1.5 | 9 | 6 | -1.6 | 0.62 | -0.7 | -3 | -6
Cn1c(Cc2ccc3c(c2)OCO3)nnc1SCC(=O)NC(C)(C)C | i | 2.5 | 9 | 7 | 1.5 | · | · | -22 | 0
O=C1c2ccsc2SCCN1Cc1ccccc1Cl | · | 4.4 | · | · | · | 0.75 | 4.9 | -6 | 4
[O-]C1=N[N+](=C(c2ccccc2)c2ccccc2)C1 | · | -2.5 | · | · | · | 0.7 | 5.7 | · | -7
O=C(COc1ccccc1Cl)Nc1ccccc1C(=O)N1CCOCC1 | i | -1.3 | -4 | 1 | -1.8 | 0.7 | 3.1 | -4 | -5
CC(C)(C)NC(=O)CSc1nc(N)c(-c2ccccc2)c(=O)[nH]1 | i | 2.5 | 14 | 10 | 1.3 | 0.72 | 2.2 | · | 1
O=C1C2=C(CCCC2)C(=O)N1CNc1ccccc1 | i | -1.2 | 3 | 5 | -1.5 | 0.66 | 8.0 | -9 | -5
COc1ccccc1OC(C)C(=O)N(Cc1ccco1)C1CCS(=O)(=O)C1 (stereo not drawn) | · | 4.2 | · | · | · | 0.69 | -0.5 | -18 | -1
S=C(NCC1CCCCC1)Nc1ccc(Oc2ccccc2)cc1 | i | 2.0 | -32 | -54 | 21 | 0.69 | 4.5 | 44 | -12
O=C(CCN1N=C(c2ccccc2)CCC1=O)NCC1CCCO1 (stereo not drawn) | i | -0.5 | 8 | 7 | 18 | 0.71 | 1.2 | 0 | 1
COc1ccccc1-c1sc2ccccc2c1-c1ccc(O)cc1 | i | 0.8 | -50 | -76 | -17 | 0.7 | -9.4 | · | 1
COc1ccc2[nH]c(CN3CCC(CO)(CCOc4ccccc4)CC3)c(C)c2c1 | i | -0.4 | -16 | -27 | 2.9 | 0.63 | -10 | -41 | 18
O=C(COC(=O)C1CCN(S(=O)(=O)c2ccccc2)CC1)NC(=O)c1ccc(OC(F)F)cc1 | i | -0.5 | 5 | 13 | -3.6 | 0.72 | 6.2 | -12 | -5
COCCCNc1ccn2nc(-c3ccc(CC(C)C)cc3)cc2n1 | i | 0.2 | -27 | -34 | 0.3 | · | · | · | ·
N#Cc1cnn2ccn(C3OC(CO)C(O)C3O)c12 (stereo not drawn) | i | 1.7 | 5 | 5 | -5.2 | 0.63 | 1.6 | -4 | -7
COc1ccccc1CC(NC(C)=O)C(=O)NC1CCN(C(=O)Nc2ccccc2C)CC1 (stereo not drawn) | · | 2.9 | -1 | 7 | -0.5 | · | · | · | -1
CC(C)N(C(=O)NC(=O)Nc1ccc(S(=O)(=O)N2CCCC2)cc1)S(C)(=O)=O | i | -4.1 | -3 | -2 | -0.3 | 0.62 | 0.0 | -8 | 0
C=CCN(Cc1cccs1)C(=O)COc1ccc2c(c1)OCO2 | i | -2.4 | -20 | -13 | 0.1 | 0.69 | -1.9 | -15 | 12

Bioassay records: PubChem, several laboratories
